High-throughput results from PubChem BioAssay.
FGF22 binding – binders of human FGF22 protein, primary screen, FGF22 synaptogenesis inhibitor project, biophysical, thermal shift, single point | Fibroblast growth factor 22 (Homo sapiens), Q9HCT0 | recombinant FGF22 thermal shift, SYPRO orange fluorescence; percent of sucrose octasulfate shift, DMSO zero | calls only at 9.99 µM | 340,000 tested, 1.5% active | AID 651658, 2012;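 active = melting point raised past a set limit in the mean and every replicate; inconclusive = no clear call; three in four hits are not shown here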
Target sequence (Q9HCT0 whole entry, looked up): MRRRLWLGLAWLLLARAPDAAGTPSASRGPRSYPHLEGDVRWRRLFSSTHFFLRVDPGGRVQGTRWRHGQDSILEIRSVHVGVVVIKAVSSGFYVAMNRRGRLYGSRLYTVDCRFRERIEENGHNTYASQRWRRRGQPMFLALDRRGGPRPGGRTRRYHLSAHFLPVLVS
MLL AF4-AF9 inh – inhibitors of AF4 peptide binding to AF9, primary screen, biochemical, AlphaScreen, biotin-AF4 peptide, FLAG-AF9, single point; Protein AF-9 (Homo sapiens), P42568; inhibition, % at 10 µM; 350,000 tested, 0.47% active; AID 651704, 2012;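 active = every replicate reaching a set inhibition limit, whatever the replicate mean, cut at about 25% in these data; inconclusive = mean inhibition reaches that limit but some replicates miss it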;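 also: 0% = plate neutral control median and 100% = total signal loss; the record names both 10 and 1 µM as test concentration; the first replicate is given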
rRNA inh HTS – reduced GFP signal of wild-type E. coli, primary screen, bacterial rRNA inhibitor project, GFP/RFP fluorescence, OD600, single point; E. coli WT GFP vs humanized-ribosome RFP mutants, 24 h; active compounds read low; DMSO median 0, no signal -100; GFP signal change (wild-type ribosome), % (test concentration not listed); 350,000 tested, 1.6% active; AID 720706, 2013;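 active = significant combined selectivity score with lowered wild-type GFP, culture density cut under 30%, mutant RFP and density less affected; inactive = any of these conditions unmet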; also: one replicate is shown; some compounds called inactive have numbers as strong as hits
Vif TR-FRET – inhibitors of Vif binding to APOBEC3G peptide, primary screen, biochemical, TR-FRET, GST-Vif 1-94, biotin-A3G peptide, dose response retest (AID 1117319); Virion infectivity factor (Human immunodeficiency virus type 1 group M subtype B (isolate …; TR-FRET GST-Vif / biotin-A3G peptide binding; higher % means a stronger effect; test concentration not given here; strong numbers were not always called active; one-dose inhibition, %; IC50 in µM for titrated hits; 260,000 tested, 0.57% active;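 active = above the screen mean plus three standard deviations and confirmed in dose response; inconclusive = results disagree or hit not tested in dose response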;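 also: Vif residues 1-94 fused to GST binding biotinylated APOBEC3G peptide 110-148; 0% = full assay without inhibitor and 100% = GST in place of GST-Vif; retest series ran down from 100 µM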
ALR H2O2 inh – inhibitors of human ALR sulfhydryl oxidase, primary screen, biochemical, H2O2 detection, HRP-luminol luminescence, single point. inhibition, % (no concentration beside the values). purified ALR, DTT oxidation. 290,000 tested, 3.8% active;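 active = mean and each replicate at 75% or more; inconclusive = only one of the two met; inactive = neither met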;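 also: stock transfer was 7.5 nL into about 7.5 µL; 0% = neutral wells and 100% = wells with inactivated enzyme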
Target sequence (P55789 whole entry, looked up): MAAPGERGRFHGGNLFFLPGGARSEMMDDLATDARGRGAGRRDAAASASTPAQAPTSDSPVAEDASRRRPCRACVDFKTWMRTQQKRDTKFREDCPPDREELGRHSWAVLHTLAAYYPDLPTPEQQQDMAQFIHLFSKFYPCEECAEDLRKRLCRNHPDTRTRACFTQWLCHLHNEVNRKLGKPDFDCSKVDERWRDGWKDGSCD
HNF4A DNA FP – change in binding of human HNF4A to DNA, primary screen, biochemical, fluorescence polarization, FITC-DNA. 360,000 tested, 0.3% active. 1 h. activity change, % at 10 µM. Hepatocyte nuclear factor 4-alpha (Homo sapiens), P41235; in the data active = activity change above about 30%, passing the limit was not always enough;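 also: controls were the assay level and a saturating level of protein; the project sought stronger binding though the title names inhibitors; some compounds called inactive have numbers as strong as hits; positive values seem to mean higher polarization but the record does not say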
Target sequence (P41235 whole entry, looked up): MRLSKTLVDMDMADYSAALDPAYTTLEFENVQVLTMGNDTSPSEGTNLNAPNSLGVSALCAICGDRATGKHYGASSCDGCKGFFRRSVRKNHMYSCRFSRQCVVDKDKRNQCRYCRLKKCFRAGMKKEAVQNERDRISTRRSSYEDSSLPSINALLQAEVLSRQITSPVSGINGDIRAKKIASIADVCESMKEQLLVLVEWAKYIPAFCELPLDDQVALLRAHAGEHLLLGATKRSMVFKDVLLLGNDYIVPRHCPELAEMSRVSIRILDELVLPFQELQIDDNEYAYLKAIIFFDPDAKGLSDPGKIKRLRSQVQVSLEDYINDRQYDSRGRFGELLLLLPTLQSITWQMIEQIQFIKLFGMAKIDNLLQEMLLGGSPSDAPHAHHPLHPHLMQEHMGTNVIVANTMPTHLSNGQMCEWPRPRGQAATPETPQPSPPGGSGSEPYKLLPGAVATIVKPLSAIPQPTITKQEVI
Ecoli growth – E. coli growth inhibition, primary screen, OD600. AID 1053175, 2014. OD600 absorbance (concentration not given with the values). Escherichia coli growth, 23 h; active compounds read low. 330,000 tested, 0.21% active;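 active = OD600 absorbance below the run mean of sample wells minus 3.6 SD, in any replicate, cut at about 0.56 in these data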;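 also: stock transfer was 300 nL into about 60 µL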
rRNA inh HTS OD600 – also measured in rRNA inh HTS; calls as there; OD600 change, %; measured here: OD600 growth;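 optical density of the mix in the first replicate; 0 = DMSO median and -100 = no signal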
rRNA inh HTS RFP – further read-out of rRNA inh HTS, marked with its call; RFP signal change, %; measured here: RFP humanized mutant strains;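 first replicate; 0 = DMSO median and -100 = no signal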
The depositor's hits bear a star; i = inactive; ? = inconclusive; . = not tested or not shown; & = joins results of further samples. A portion of the library; rates above refer to the full screens.

Screens in order: FGF22 binding	MLL AF4-AF9 inh	rRNA inh HTS	rRNA inh HTS OD600	rRNA inh HTS RFP	Vif TR-FRET	ALR H2O2 inh	HNF4A DNA FP	Ecoli growth
1) O=C(Cn1c(=O)n(CCC(=O)N2CCCCC2)c(=O)c2sccc21)NCc1ccccc1
    i	-2.0	20.3	21.0	3.5	.	0.1	0.8	0.676
2) N#CC1(NC(=O)COC(=O)c2ccc(Cl)nc2)CCCCC1
    i	-1.6	7.6	6.9	4.0	3.4%	0.3	-2.4	0.67
3) Cc1cccc(-c2ccc3[nH]c4c(c3c2)CCN2C[C@H]3[C@H](C)ON(C)[C@H]3C[C@@H]42)c1
    i	39.2*	2.8	0.5	4.1	3.1%	.	-0.4	.
4) CC(C)c1ccc(NC(=O)COc2nnc(-c3cccs3)c(-c3cccs3)n2)cc1
    .	.	.	.	.	7.1%	-3.1	1.9	0.697
5) CC(=O)Nc1cccc(C(=O)N(CCc2ccccc2)Cc2ccccc2)c1
    i	3.3	-17.3	-22.6	-4.5	3.9%	3.7	2.4	0.739
6) O=C(Nc1ccccc1Cl)c1ccc([N+](=O)[O-])o1
    i	-0.9	-5.2	4.5	-1.5	1.3%	-8.6	1.2	0.571
7) CC1CC(C)CN(CCCNC(=O)c2ccc(CS(=O)(=O)Cc3ccccc3F)o2)C1 (configuration not stated)
    .	.	.	.	.	?	-0.7	1.1	0.745
8) OCC1(Cc2ccccc2)CCCN(Cc2ccc(-c3ccco3)cc2)C1 (configuration not stated)
    i	11.6	-0.3	2.2	22.5	-3.1%	.	11.0	0.683
9) O=C(Nc1ccncc1)Nc1cccc(C(F)(F)F)c1
    i	-8.3	-53.4	-78.8	-13.2	.	-3.6	2.4	0.528
10) Cc1ccc(NC(=O)c2nc[nH]c2C(=O)N2CCN(C(=O)OC(C)(C)C)CC2)cc1
    i	0.7	5.9	7.1	-12.6	.	-8.9	-0.6	0.698
11) Cc1ccccc1NC(=O)OCc1ccccc1
    i	-0.1	3.7	-3.0	-1.2	.	-3.4	-0.2	0.687
12) Cc1ccc(-c2nnc(SCC(=O)NC3CC3)o2)cc1
    i	-3.4	3.0	1.3	0.8	5.2%	4.4	-0.5	0.609
13) O=C(NCC1CC1)[C@@H]1[C@@H](CO)[C@@H]2Cn3c(ccc(-c4ccccc4)c3=O)[C@H]1N2CC1CC1
    i	-0.4	-3.3	-1.8	-3.5	.	.	.	.
14) CC(C)NC(=O)Nc1ccc2c(c1)C(=O)N([C@@H](C)CO)C[C@@H](C)[C@@H](CN(C)Cc1ccc(C(=O)O)cc1)O2
    i	-4.5	3.7	10.0	2.1	.	.	.	.
15) O=C(c1ccccc1)c1c[nH]c(C(=O)NNc2ccccc2)c1
    i	-1.4	0.9	1.4	0.6	-10.5%	-8.3	0.4	0.694
16) Cc1ccccc1COc1cccn2c(N(C)C(=O)CCC3CCCC3)c(C)nc12
    i	3.3	-20.8	-31.1	-7.4	.	.	-1.1	.
17) CCOC(=O)N1CCN(c2cc(C)nc3nc(C)nn23)CC1
    i	-3.2	7.4	5.4	6.9	?	.	0.3	0.728
18) COc1cccc(S(=O)(=O)Nc2ccc3c(c2)[C@@H]2C[C@H](CC(=O)N[C@@H](C)c4ccccc4)O[C@H](CO)[C@@H]2O3)c1
    i	-1.2	-12.6	-26.9	2.9	.	.	.	.
19) CC(C)c1ccc(NC(=O)COC(=O)CCC(=O)c2cccs2)cc1
    i	0.3	5.7	2.2	3.3	-4.1%	1.3	-1.1	0.653
20) CN1CCCCN2[C@H](C1)[C@@H](c1ccc(-c3ccccc3)cc1)[C@@H]2CO
    i	5.0	-0.7	9.4	-0.5	.	.	.	.
21) CCC(C)CCN1C(N(C)C)=NC[C@@H]1Cc1ccccc1 (some centres not stated)
    i	.	4.2	11.2	-0.5	.	-5.4	4.7	.
22) O=C(C[C@H]1CC[C@H](NC(=O)C2CCC2)[C@H](CO)O1)Nc1nccs1
    i	-1.4	0.6	6.0	-4.3	.	.	.	.
23) Cc1cc(NC(=O)C2CC(c3cccc(Br)c3)=NO2)no1 (configuration not stated)
    i	-35.7	-0.4	0.4	0.9	-14.1%	6.9	-0.3	0.65
24) c1ccc(C2=NCCCN2)cc1
    i	-28.5	5.9	2.8	-8.7	11.2%	-1.1	-0.5	0.692
25) COC(=O)c1ccc2[nH]c(C)c(CN3CCCC3)c(=O)c2c1
    .	.	.	.	.	9.2%	.	4.1	0.751
26) CS(=O)(=O)c1ccc(NC(=O)CCN2C(=O)C3CC=CCC3C2=O)cc1 (configuration not stated)
    i	-1.2	-9.2	-0.4	-2.6	-0.5%	0.3	-5.5	0.631
27) Cc1ccn2c(NCc3ccccc3)c(-c3cccc(SC4CCCCC4)c3)nc2c1
    i	7.2&6.4	-10.4&-12.8	-1.2&-7.0	22.2&3.9	.	-4.2	1.9&5.9	.
28) O=C(C[C@H]1C=C[C@@H](NS(=O)(=O)c2ccccc2)[C@@H](CO)O1)N1CCc2ccccc2C1
    i	-2.7	-5.8	-1.2	-1.5	.	.	.	.
29) CCOc1ccc(C(=O)NCCN2CCCC2)cc1
    i	5.1	9.4	6.6	-2.3	.	-14.3	1.7	0.721
30) CCOC(=O)N1CCN(S(=O)(=O)c2ccc(C(=O)N(CCN(C)C)c3nc4ccc(CC)cc4s3)cc2)CC1
    i	0.2	20.8	11.3	0.6	1.3%	0.2	1.6	0.683
31) Cc1ccc(NC(=O)c2ccc3nc[nH]c3c2)nc1
    i	-2.2	0.5	9.0	-4.1	14.1%	-12.8	-4.2	0.667
32) Cc1ccc(-c2ccc3c(c2)O[C@H](CN(C)C(=O)CC2CC2)[C@@H](C)CN([C@H](C)CO)S3(=O)=O)cc1
    i	4.2	-9.5	-37.2	5.3	.	.	.	.
33) COC(=O)C1=C(C)N(Cc2ccc(C(F)(F)F)cc2)C(=NCc2ccc(C(F)(F)F)cc2)NC1c1cccc(F)c1 (configuration not stated)
    .	2.1	-56.7	-79.6	-13.6	.	.	.	.
34) COc1ccc(N2CC(O)=C(c3nc(-c4ccc(F)cc4)cs3)C2=N)cc1
    i	-2.7	6.5	4.6	-2.1	3.5%	-5.3	2.5	0.718
35) Cc1nc2cc(-c3ccc(Cl)cc3)nn2c(C)c1CCC(=O)NC(C)c1ccc2c(c1)OCCO2 (configuration not stated)
    i	-3.8	-0.4	0.2	-0.6	5.3%	-2.2	2.4	0.755
36) CCCNC(=O)C[C@@H]1C[C@H]2c3cc(NC(=O)NC4CCCCC4)ccc3O[C@H]2[C@H](CO)O1
    i	1.0	-0.6	-5.5	-4.2	.	.	.	.
37) O=C(COc1ccc(S(=O)(=O)N2CCCC2)cc1)Nc1ccc2c(c1)OCCO2
    i	-0.6	-13.3	-11.1	1.8	-1.6%	1.2	-2.6	0.754
38) CCOc1ccccc1/C=C/c1onc(C)c1S(=O)(=O)N1CCC(C(=O)NC(C)C)CC1
    i	-32.8	-1.9	13.1	-2.5	.	-2.8	-8.8	0.684
39) CCCCc1c(O)nc(SCC(=O)Nc2ccc(OC)cc2)n(-c2ccc(C)c(C)c2)c1=O
    i	-2.8	3.9	14.3	-1.2	2.4%	.	1.8	.
40) CCN(Cc1ccccc1)c1ccc(/C=N/NS(=O)(=O)c2ccc(C)c([N+](=O)[O-])c2)cc1
    i	-2.1	-33.5*	-24.5*	-3.8*	.	-22.9	0.5	.
41) OC[C@H]1[C@@H](c2ccc(Br)cc2)[C@@H]2CNCCCCN12
    i	6.1	-2.9	3.4	-2.7	.	.	.	.
42) CCOC(=O)N1CCN(C(=O)c2cc(C)no2)CC1
    i	-5.6	6.9	10.6	-1.8	-3.2%	-5.6	-2.9	0.762
43) COc1ccc(/C(CC2(O)C(=O)Nc3ccccc32)=N\O)cc1 (configuration not stated)
    .	.	.	.	.	1.0%	-7.8	-0.9	.
44) c1ccc(CSCCc2ccncc2)cc1
    .	.	.	.	.	2.2%	13.3	2.4	.
45) O=C(NCCCN1CCOCC1)c1ccccc1N1C(=O)[C@@H]2Cc3c([nH]c4ccccc34)C(c3ccccc3)N2C1=O (some centres not stated)
    i	5.8	.	.	.	.	.	2.2	.
46) Fc1ccc(-c2nc3c4ccccc4ccn3c2Cc2ccsc2)cc1
    i	-2.1	.	.	.	.	.	4.5	.
47) CCOc1ccccc1C1NC(=O)c2ccccc2O1 (configuration not stated)
    i	3.7	-6.3	4.8	-3.2	.	-2.2	-0.9	0.615
48) O=C(O)CC(NC(=O)c1ccc2c(c1)OCO2)c1cccc([N+](=O)[O-])c1 (configuration not stated)
    i	-1.2	34.4	16.8	2.3	10.0%	-4.4	-1.7	0.659
49) COc1ccc(Cn2c(CCC(=O)Nc3ccc(C)c(C)c3)nc3cccnc32)cc1
    .	.	.	.	.	-1.8%	-12.2	1.4	0.737
50) CCOc1ccc(S(=O)(=O)N2CCOCC2)cc1NC(=O)CSCC(=O)Nc1cccc(C)c1
    i	-0.5	4.3	5.8	1.1	.	4.3	-0.7	.
51) O=C1C2ON(c3ccccc3)C(c3ccccc3F)C2C(=O)N1c1ccccc1 (configuration not stated)
    .	.	.	.	.	-10.1%	-9.4	1.4	0.8
52) Cc1cc(N2CCN(c3ccccc3)CC2)nc(N2CCOCC2)n1
    i	2.6	-1.0	6.8	-9.9	16.8%	98.9*	-0.3	0.688
53) CCOC(=O)C1=C(COC(=O)c2cc(Br)c(Br)s2)NC(=O)NC1C (configuration not stated)
    i	0.6	-0.5	6.2	11.0	-13.4%	-8.0	-0.1	0.69
54) [O-]/[N+](=C/c1cccnc1)c1ccc(Br)cc1
    .	.	.	.	.	24.9%	.	1.8	0.756
55) COc1ccc(CN2C[C@@H](O)COC[C@@H]3O[C@@H](CC(=O)N4CCc5ccccc5C4)CC[C@H]32)cc1
    i	1.2	-5.6	-14.3	-3.3	.	.	.	.
56) Cc1ccc(C)c(N2N=C(C(=O)NCCN3C(=O)S/C(=C\c4cccnc4)C3=O)CCC2=O)c1
    i	-2.3	4.5	13.1	1.4	4.6%	-3.8	-6.9	0.666
57) CC(C)CNC(=O)c1ccccc1C(=O)NC1(C(=O)NCC(C)C)CCCC1
    i	-1.7	-1.3	-2.6	-2.3	1.5%	.	3.7	0.675
58) CN(C)C(/C=C/Nc1ccccc1F)=C(C#N)C#N
    .	.	.	.	.	-1.4%	-14.2	4.4	0.719
59) Cc1ccc(S(=O)(=O)Nc2cc(C)cn(Cc3ccc(F)cc3)c2=O)cc1
    i	-1.3	0.3	-5.6	5.5	.	-59.5	17.7	0.688
60) COc1ccc(C2=NOC(Cn3nc(-c4ccccc4)cc3C(=O)NCc3ccc(C)cc3)C2)cc1 (configuration not stated)
    i	-4.6	9.6	1.2	0.4	.	-2.3	7.8	0.685
61) CSc1ccccc1C(=O)N(C)C(c1ccccc1)c1ccccc1
    i	2.3	-65.0	-78.5	-15.6	.	-4.6	1.3	0.707
62) O=C(CCC1CCCC1)N1CCN(C(=O)COc2ccccc2)CC1
    .	.	.	.	.	4.9%	0.5	1.0	0.741
63) COc1ccc(CN(C)C[C@H]2Oc3c(NC(=O)Nc4ccc(C(F)(F)F)cc4)cccc3C(=O)N([C@@H](C)CO)C[C@H]2C)cc1
    i	8.0	-39.2	-63.0	4.6	.	.	.	.
